WNV NS2B-NS3 inh – blocks West Nile virus NS2B-NS3 protease activity | 0.18% of 65,000 active | z-score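 (tested at a level between 10 and 100 µM)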 | WNV NS2B-NS3 protease, fluorogenic substrate Ex360/Em465; hits give low values | AID 577 | P06935;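 active = z-score at -3 or under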;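 also: score is relative to mean and spread of the compound wells of a plate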
Target sequence (P06935 1371-1501 limits assumed): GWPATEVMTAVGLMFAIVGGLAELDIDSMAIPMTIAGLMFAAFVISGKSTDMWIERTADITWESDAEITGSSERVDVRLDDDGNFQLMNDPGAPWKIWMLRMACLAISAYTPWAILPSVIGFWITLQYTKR
Target sequence (P06935 1502-1679 limits assumed): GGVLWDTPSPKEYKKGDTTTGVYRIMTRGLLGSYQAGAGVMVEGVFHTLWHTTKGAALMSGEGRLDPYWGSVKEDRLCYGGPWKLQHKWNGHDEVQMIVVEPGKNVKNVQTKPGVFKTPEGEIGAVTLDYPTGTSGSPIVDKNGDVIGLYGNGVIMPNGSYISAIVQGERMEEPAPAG
Hsc70 – Hsc70 inhibitors, probe displacement, primary screen, biochemical, fluorescence polarization (AID 568); Hsc70 fluorescence polarization, probe displacement; higher % means a stronger effect; strong numbers were not always called active; 83,000 tested, under 10 active; displacement, % at 20 µM, or IC50 in µM where a hit was titrated;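 active = displacement above 50% without optical interference and an IC50 on retest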;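 also: ATPase domain with a fluorescein-tagged ATP probe; 0% = vehicle and 100% = excess ADP; read after one hour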
MT1-MMP reporter – MT1-MMP gene expression reporter suppression – cell-based, luciferase reporter, luminescence (AID 618); 0.62% of 87,000 active; MT1-MMP promoter luciferase reporter cells, luminescence; calls from a first round at 10 µM; hits with a dose series show EC50 in µM;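 active = over half of the reporter light lost at 10 µM or EC50 under 50 µM; inactive = the rest and hits that failed the dose series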;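 also: actives suppress MT1-MMP promoter-driven transcription so potencies describe inhibitors; HT1080 fibrosarcoma cells; overnight exposure; toxic or luciferase-blocking compounds were not removed from the actives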
Starred values were filed as active, the others as inactive; i = inactive; · = not tested or not shown.

SMILES	WNV NS2B-NS3 inh	Hsc70	MT1-MMP reporter
O=C(O)C1C(c2ccccc2)C(C(=O)OCCCO)C1c1ccccc1 (centres undefined)	-1	-9.1%	i
COc1ccc(CCNS(=O)(=O)c2ccc(C(=O)NCc3ccco3)cc2)cc1OC	-0.18	1.7%	i
COc1ccccc1N1CCN(c2nc(-c3ccccc3)cc(C(F)(F)F)n2)CC1	-0.74	2.9%	i
CC(NC(=O)c1ccccc1Cl)c1nnc(SCC(=O)Nc2ccc(C(=O)O)cc2)n1C (centres undefined)	·	-0.8%	i
CCCNS(=O)(=O)c1ccc(CCC(=O)N2CCN(CC)CC2)cc1	·	1.9%	i
COc1ccc(-c2cc(C(F)(F)F)n3ncc(C(=O)NCC4CCCO4)c3n2)cc1OC (centres undefined)	-1.3	-10%	i
COc1ccc(-c2cn3cccnc3n2)cc1NC(=O)C1CC1	0.72	2.6%	i
COc1ccccc1NC(=O)CN1C(=O)C(C)Oc2ccccc21 (centres undefined)	1	-0.4%	i
Cc1nn(CC(N)=O)c(=O)c2ccccc12	0.21	0.4%	i
COC(=O)c1[nH]c2ccc(F)cc2c1NC(=O)C1=COCCO1	1.2	-0.6%	i
COc1ccc(-c2cc(OC)c3c(C)oc(C)c3c(=O)c2)cc1OC	2.8	1.1%	i
N#C/C(=C(/O)COC(=O)CCC1CCCCC1)c1nc2ccccc2[nH]1	0.49	-76%	i
CCCOc1ccc(C2C(C(=O)c3ccc(C)o3)=C(O)C(=O)N2CCCn2ccnc2)cc1 (centres undefined)	-1.3	3.8%	i
OC(CCN1CCCC1)(c1ccccc1)C1CCCCC1 (centres undefined)	-0.19	-1.9%	i
CCOc1ccccc1N1CCN(c2nc(N)c(C#N)c(CC#N)c2C#N)CC1	0.28	-11%	i
O=C(Cn1nnc(-c2ccccc2)n1)NCc1ccccc1	-0.91	0.2%	i
COC(=O)Cc1c(C)c2ccc(OCC(C)=O)c(C)c2oc1=O	-0.35	-1.0%	i
CCOC(=O)N1CCN(C(=O)c2ccc3c(SCC(=O)O)c4c(nc3c2)CCCC4)CC1	0.98	-0.3%	i
CCOCCCNC(=O)c1cccs1	0.61	2.4%	i
CC(=O)OCCOc1nc(N(C)C)nc(N(C)C)n1	1.1	-1.0%	i
COCCSc1nnc(NC(=O)Cc2ccccc2OC)s1	-1	-5.6%	i
COc1ccc(S(=O)(=O)Nc2cc(C)ccn2)cc1OC	2.4	0.3%	i
COc1ccc(S(=O)(=O)NCC(c2cccnc2)N2CCN(c3ccc(F)cc3)CC2)cc1C (centres undefined)	-0.87	-5.0%	i
Nc1ccc(C(=O)OCC(=O)NC2CCCc3ccccc32)cc1[N+](=O)[O-] (centres undefined)	·	2.5%	i
CC(=O)c1cc2c(cc1NS(=O)(=O)c1ccccc1)OCO2	·	-0.1%	i
COC(=O)c1c(NC(=O)CN2CCN(C(=O)c3ccco3)CC2)c2cc(C)ccc2n1C	0.15	-6.1%	i
N/C(=N\OC(=O)c1ccccc1Cl)c1cccnc1	·	0.6%	i
CC(=O)c1c(C)nc(C)nc1NC(=O)C(C)C	-0.04	3.6%	i
CCOc1ccc(-c2cc(C(=O)O)c3ccccc3n2)c(OCC)c1	1.1	-8.5%	i
CCOc1ccccc1N1C(=O)CC(Sc2ncccc2C(=O)O)C1=O (centres undefined)	0.76	6.9%	i

Part of the list above in a different format.
CCOc1ccccc1N1C(=O)CC(Sc2ncccc2C(=O)O)C1=O (centres undefined)
  WNV NS2B-NS3 inh: 0.76	Hsc70: 6.9%	MT1-MMP reporter: i

CC(=O)c1cc2c(cc1NS(=O)(=O)c1ccccc1)OCO2
  WNV NS2B-NS3 inh: ·	Hsc70: -0.1%	MT1-MMP reporter: i

COC(=O)Cc1c(C)c2ccc(OCC(C)=O)c(C)c2oc1=O
  WNV NS2B-NS3 inh: -0.35	Hsc70: -1.0%	MT1-MMP reporter: i

COc1ccc(S(=O)(=O)NCC(c2cccnc2)N2CCN(c3ccc(F)cc3)CC2)cc1C (centres undefined)
  WNV NS2B-NS3 inh: -0.87	Hsc70: -5.0%	MT1-MMP reporter: i

Additional entries
SMILES	WNV NS2B-NS3 inh	Hsc70	MT1-MMP reporter
O=C(CCCn1c(SCC(=O)NCC2CCCO2)nc2ccccc2c1=O)NCC1CCCO1 (centres undefined)	0.61	3.0%	i
CC(C)c1ccc2oc(=O)cc(CN3CCN(c4ccc(F)cc4)CC3)c2c1	-0.96	-3.7%	i
Cc1ccc(/C=C/C(=O)c2ccc(C)cc2)cc1	·	2.7%	i
N=c1c(C(=O)NCc2ccc(F)cc2)cc2c(=O)n3ccccc3nc2n1Cc1ccco1	0.76	9.4%	i
Cc1sc2nc(CN3CCN(S(=O)(=O)c4cccc5nonc45)CC3)[nH]c(=O)c2c1C	-0.96	-7.7%	i
CCN(CCNC(=O)C1CCCN(Cc2nc(-c3ccc(OC)cc3)oc2C)C1)c1ccccc1 (centres undefined)	-2	2.6%	i
CC(=O)Nc1cccc(Oc2cc(C#N)c(C#N)cc2N2CCOCC2)c1	-0.62	-1.1%	i
Cn1c(SCc2ccccc2F)nnc1-c1cnccn1	-0.44	3.8%	i
O=c1cc2c(nn1Cc1ccc(Cl)cc1Cl)-c1ccccc1CC2	·	4.4%	i
CC(C)C(O)(C#CCN1CCCCC1)c1ccccc1 (centres undefined)	·	0.4%	i
Cc1ccccc1CN1CCN(CC(=O)NCCCN2CCN(c3ccc(F)cc3)CC2)C1=O	0.01	4.3%	i
CCCCn1c(N2CCC(Cc3ccccc3)CC2)nc2c1c(=O)[nH]c(=O)n2C	0.67	-4.7%	i
COc1ccccc1N1CCN(C(=O)COc2ccc(Cl)cc2)CC1	-1.2	7.6%	i
C=CCSc1nc(C)c(CC=C)c(=O)[nH]1	-0.83	0.2%	i
C=CCc1ccc(OCCCOc2ccc(C)cc2OC)c(OC)c1	·	-1.8%	i
COc1ccc(S(=O)(=O)N(CC(=O)NC2CC2)c2ccc(C)cc2)cc1OC	0.4	-0.7%	i
O=C(CNC(=O)c1cccc(Br)c1)NCCc1nc2ccccc2[nH]1	·	-7.1%	i
CC(C)C1Cc2[nH]c(=O)c(C(=O)O)cc2CO1 (centres undefined)	1.1	0.8%	i
O=S1(=O)N=C2CCCN2C(c2ccc(F)cc2)N1 (centres undefined)	-0.64	1.6%	i
Cc1ccc(-c2cc(-c3ccc(C)o3)nc(N)c2C#N)cc1	-0.49	-7.6%	i
CCN(CC(=O)NC1CCS(=O)(=O)C1)C(=O)C(c1ccccc1)c1ccccc1 (centres undefined)	-0.77	1.7%	i
N#CC1=C(N)N2C(=C(C#N)C13CCN(Cc1ccccc1)CC3)Nc1ccccc12	0.3	7.1%	i
O=C1c2ccccc2C(=O)N1c1cccc(-c2nc3ccccc3o2)c1	0.26	5.7%	i
CCN(CC)S(=O)(=O)c1ccc(NC2c3ccccc3C(=O)N2Cc2ccc3c(c2)OCO3)cc1 (centres undefined)	0.5	6.8%	i
COCCNC(C)C(=O)Nc1ccc(Br)cc1 (centres undefined)	2.1	-3.9%	i
Cc1csc2ncc(C(=O)NCc3ccc4c(c3)OCO4)c(=O)n12	-0.49	1.0%	i
COc1cccc(Oc2coc3c(CN4CCOCC4)c(O)ccc3c2=O)c1	1.2	7.1%	i
Cc1cc(NC(=O)C2CC(c3ccc(F)cc3)=NO2)n(-c2ccccc2)n1 (centres undefined)	-0.08	-1.9%	i
CCN(CC)c1ccc2cc(C(C)=O)c(=O)oc2c1	·	-126%	i
Cc1ccc2cc(CN(Cc3ccc(F)cc3)Cc3nnnn3C3CCCC3)c(=O)[nH]c2c1	-0.16	-4.5%	i
Cc1ccc(C(=O)Nc2c(C(=O)N3CCOCC3)cnn2-c2ccccc2)cc1	1.6	1.2%	i
CN(c1ccccc1)c1ccc(/C=c2\s/c(=C(/C#N)C(=O)C(C)(C)C)n(Cc3ccco3)c2=O)cc1	0.79	-91%	i
CC1Cc2ccccc2N1C1=NS(=O)(=O)c2ccccc21 (centres undefined)	2.8	1.6%	i
COc1cccc(NC(=O)N[C@@H](Cc2ccccc2)C(=O)O)c1	-1	4.9%	i
CCc1ccc(NC(=O)CSc2nc3c(c(=O)n(C)c(=O)n3C)n2C)cc1	-1.1	2.0%	i
CCc1c(C)c(C#N)c2nc3ccccc3n2c1NCC1CCCO1 (centres undefined)	·	4.6%	i
CCCOc1ccc(C(=O)CCN2CCCCC2)cc1	1.3	-4.9%	i
CS(=O)(=O)N1CCN(c2ccccc2NC(=O)c2ccc(-c3ccc(Cl)cc3Cl)o2)CC1	-0.54	-35%	i
CC1=CC2(C#N)C3(N=C(N)C2(C#N)C(c2ccccc2)N1)OCCO3 (centres undefined)	-0.65	3.8%	i
COCCn1c(N)c(S(=O)(=O)c2cccs2)c2nc3ccccc3nc21	0.32	-27%	i
COc1ccc(N(Cc2cc3ccccc3[nH]c2=O)C(=O)C2CCCO2)cc1 (centres undefined)	-0.07	5.8%	i
O=C(CC(C(=O)N1CCc2ccccc21)n1ccnc1)NCc1cccnc1 (centres undefined)	0.73	-0.1%	i
CCCOc1ccc(N2C(=O)CC(N(CCC)C(=O)CCC(=O)O)C2=O)cc1 (centres undefined)	-0.54	-1.2%	i
Cc1ccc(-n2c(SCC(=O)Nc3ccc4c(c3)OCO4)nnc2-c2ccoc2C)cc1	1.9	-9.1%	i
COc1ccc(C(=O)NC(=O)Nc2ncccc2C)cc1	·	-3.1%	i
COc1cc(NC(=O)c2csc3c2CCCC3)ncn1	0.6	0.6%	i
O=C(CSc1ccc(Cl)cc1)Nc1ccc(N2CCN(C(=O)c3ccco3)CC2)cc1	0.63	1.2%	i
CCN1CCN(C(=O)c2cc3c(-c4ccc(Cl)cc4)nn(C)c3s2)CC1	0.03	2.3%	i
O=C(O)c1cccc(N2CCCCS2(=O)=O)c1	-0.56	-0.2%	i
CCOC(=O)c1sc(NC(=O)CSc2nc(C)cc(C)c2C#N)c(C#N)c1C	·	0.7%	i
CCOc1ncccc1C(=O)Nc1ccc(Cl)cc1	0.47	-2.5%	i
O=c1c2[nH]c3ccc(Br)cc3c2ncn1CCCn1ccnc1	-0.74	-2.4%	i
CCOc1ccccc1Nc1nnc(C)c(=O)[nH]1	1.4	-5.1%	i
CSCCC1NC2(C(=O)Nc3ccc(Cl)cc32)[C@@H]2C(=O)N(C3CCCC3)C(=O)[C@H]12 (some centres undefined)	-0.18	-5.8%	i
COc1cc(C(=O)N2CCC(n3cnc4cc(F)ccc43)CC2)cc(OC)c1OC	0.4	-1.7%	i
CCCCCNc1nc(NCCCO)c(C#N)c2c1CN(C)CC2	·	-1.1%	i
On1cnnc1-c1ccccc1	0.75	4.9%	i
CCOc1ccc2nc(NC(=O)c3ccc(S(=O)(=O)N4CCOCC4)cc3)sc2c1	-0.69	-4.3%	i
c1ccc(COc2ccc(Oc3nc(N4CCCCC4)nc(N4CCOCC4)n3)nn2)cc1	-1.4	-1.7%	i
Cc1ccc2[nH]c(=O)c(CN(Cc3ccc4c(c3)OCO4)Cc3nnnn3Cc3ccco3)cc2c1	-0.05	0.9%	i

Compound profiles, from the list above:
`CCOc1ncccc1C(=O)Nc1ccc(Cl)cc1` across the screens: WNV NS2B-NS3 inh = 0.47; Hsc70 = -2.5%; MT1-MMP reporter = i
`CCOc1ccc2nc(NC(=O)c3ccc(S(=O)(=O)N4CCOCC4)cc3)sc2c1` across the screens: WNV NS2B-NS3 inh = -0.69; Hsc70 = -4.3%; MT1-MMP reporter = i

Molecules above with bromine, in the order listed:
SMILES	WNV NS2B-NS3 inh	Hsc70	MT1-MMP reporter
O=C(CNC(=O)c1cccc(Br)c1)NCCc1nc2ccccc2[nH]1	·	-7.1%	i
COCCNC(C)C(=O)Nc1ccc(Br)cc1 (centres undefined)	2.1	-3.9%	i
O=c1c2[nH]c3ccc(Br)cc3c2ncn1CCCn1ccnc1	-0.74	-2.4%	i

Next section.
SMILES	WNV NS2B-NS3 inh	Hsc70	MT1-MMP reporter
Clc1ccc(-n2nnnc2SCc2cn3ccccc3n2)cc1	·	1.7%	i
CCCn1c(N)c(C(=O)CSc2nc(C)cs2)c(=O)n(C)c1=O	·	6.3%	i
O=C(NCc1ccccc1)C1CC(=O)N(c2ccc(OCC(=O)N3CCCC3)cc2)C1 (centres undefined)	·	7.2%	i
COc1ccc(C2NC(=O)CS2)cc1 (centres undefined)	·	-1.5%	i
CC(=O)OC1c2c(ccc3ccc(=O)oc23)OC(C)(C)C1OC(=O)CC(C)C (centres undefined)	-0.71	7.2%	i
O=C(CCC(=O)c1ccc(F)cc1)Nc1cccnc1	·	0.7%	i
CCN1C(=O)CSc2ccc(C(=O)NC3CCCCC3)cc21	0.96	0.8%	i
CSc1nsc(NC(=O)Cc2ccccc2)n1	-0.04	-2.0%	i
c1coc(CNc2ncnc3ccccc23)c1	0.36	-8.2%	i
CCOC(=O)c1sc(NC(=O)C2C3C=CC(C3)C2C(=O)O)nc1C (centres undefined)	·	3.2%	i
Cc1ccc(Cn2c(=N)n(CC(O)c3ccco3)c3ccccc32)cc1 (centres undefined)	-0.33	0.3%	i
Cc1cc(=O)[nH]c(SCC(=O)NCc2ccco2)n1	0.92	1.6%	i
CCOc1ccc(C(CC(=O)O)NC(=O)COc2ccccc2)cc1 (centres undefined)	0.44	-1.9%	i
Cn1c(COc2ccccc2)nnc1SCCN1CCOCC1	0.33	-3.7%	i
CCNC(=O)c1c(O)c2ccccc2[nH]c1=O	-0.24	-6.6%	i
O=C(NCCN1CCOCC1)c1ccc(CS(=O)(=O)c2c(Cl)cccc2Cl)o1	-1	2.9%	i

Assay outcomes from PubChem BioAssay.
